Assay outcomes from PubChem BioAssay.
CHT block: inhibits the human high affinity choline transporter. Q9GZV3. CHT-expressing cells, membrane potential dye, choline response; stronger effect = lower value. B-score at 10 µM. 310,000 compounds, 0.86% hits. AID 488975;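 active means B-score over 3 SD under the library average, and starting fluorescence ratio not unusually high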;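 further: choline stimulus applied at its EC90 after an EC20 pre-addition; B-score computed on integrated fluorescence ratio after choline addition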
Target sequence (Q9GZV3 whole entry, looked up): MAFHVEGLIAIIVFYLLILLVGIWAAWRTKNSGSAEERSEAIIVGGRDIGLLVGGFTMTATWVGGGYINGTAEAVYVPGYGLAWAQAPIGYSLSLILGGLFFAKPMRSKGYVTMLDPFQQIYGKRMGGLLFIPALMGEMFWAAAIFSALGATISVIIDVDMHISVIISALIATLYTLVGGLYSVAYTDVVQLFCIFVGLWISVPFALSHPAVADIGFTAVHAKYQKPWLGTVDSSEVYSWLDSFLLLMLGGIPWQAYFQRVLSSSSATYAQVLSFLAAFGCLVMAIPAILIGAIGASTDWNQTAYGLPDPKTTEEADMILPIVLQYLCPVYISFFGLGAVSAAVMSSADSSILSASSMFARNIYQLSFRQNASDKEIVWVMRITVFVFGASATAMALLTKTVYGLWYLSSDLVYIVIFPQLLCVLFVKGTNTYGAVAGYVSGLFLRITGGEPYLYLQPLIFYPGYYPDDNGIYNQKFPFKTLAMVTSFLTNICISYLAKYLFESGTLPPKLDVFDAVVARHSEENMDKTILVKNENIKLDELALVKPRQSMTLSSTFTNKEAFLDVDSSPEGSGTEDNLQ
Calls only; i = inactive. Only part of the results is shown, and most or all hits are left out here.

CHT block	mol
i	CCOc1ccc(NC(=O)N(Cc2ccc(C)cc2)Cc2ccccn2)cc1
i	Cc1[nH]c(=O)[nH]c(=O)c1N(C)C
i	CCCCNC(=S)N1CCN(c2ccccc2Cl)CC1
i	C=CCn1c(Oc2cccc(C)c2)nc2c1c(=O)n(C)c(=O)n2C
i	FC(F)(F)c1ccc2c(c1)NCC1CCCN21 (stereo not given)
i	CCCCN(CC)CCCNC(=O)c1ccc(CSc2nc3ccncc3[nH]2)cc1
i	COc1ccc(N2CCN(C(=O)CCCn3c(=O)[nH]c4cc(Cl)ccc4c3=O)CC2)cc1
i	CSCCC(NS(=O)(=O)c1ccccc1F)C(=O)N1CCCCCC1 (stereo not given)
i	CCCCCC(C)NC(=S)NC(=O)c1cc(S(=O)(=O)N2CCOCC2)ccc1C (stereo not given)
i	Cc1ccc(NC(=O)c2cc(C)nn2-c2ccccc2)cc1
i	Cc1ccc(NC2=CC(=O)CC(c3ccc(Cl)cc3)C2)cc1 (stereo not given)
i	CCN1C(=O)c2ccc(C(=O)NCc3ccc4c(c3)OCO4)cc2C1=O
i	Nc1c(C(=O)c2cccs2)oc2ccccc12
i	CCc1ccc(NC(=O)CNS(=O)(=O)c2c(C)noc2C)cc1
i	CCOc1ccc(N(C)S(=O)(=O)c2cnc[nH]2)cc1
i	CC(=O)OC(C(=O)NCCc1ccccc1)c1cccnc1 (stereo not given)
i	Cc1cc(C)nc(SCc2nc3ncccn3c2Br)n1
i	COc1cc(OC)cc(C(=O)Nc2cccc(-c3ccc(N4CCOCC4)nn3)c2)c1
i	Cc1cccc(OCCCCn2c(CO)nc3ccccc32)c1
i	c1ccc(-n2c(SCc3nc(-c4cccs4)no3)nnc2-c2ccco2)cc1
i	O=C(Nc1ccccc1)c1nsnc1C(=O)Nc1ccccc1
i	Cc1nc2ccc(NC3=NCCCCC3)cc2s1
i	Cc1ccc(NC(=O)CSc2nnc([C@@H]3CCCN3C(=O)OC(C)(C)C)o2)c(C)c1
i	COc1c(Cl)cc(Cl)cc1CNCCNCCO
i	COc1ccc2oc(C(=O)NCc3cc(OC)c(OC)cc3OC)c(C)c2c1
i	O=C(NC(Cc1ccccc1)C(=O)O)/C(=C/c1ccccc1)NC(=O)c1ccco1 (stereo not given)
i	O=C(c1ccco1)N1CCN(S(=O)(=O)c2ccc(Oc3ccccc3)cc2)CC1
i	COc1cccc(CN(CC2CCCO2)C(=O)c2cc3ccccc3oc2=O)c1 (stereo not given)
i	COc1ccccc1NCC(=O)N/N=C/c1cccnc1
i	COc1cc(OC)cc(-c2nnc(SCC(=O)Nc3ccc(C(=O)O)cc3)s2)c1
i	CCOC(=O)n1c(=O)n(C)c2ccc(Br)cc21
i	O=C(CCNS(=O)(=O)c1cccc2nsnc12)N1CCN(c2ccccn2)CC1
i	Cc1ccc(OC(=O)CCC(=O)N2CCc3ccccc32)cc1
i	CCOC(=O)Cn1cc(/C=N/NC(=O)CC#N)c2ccccc21
i	CCCCCCCCCCCCS(=O)(=O)CCC(=O)O
i	O=C1c2cc(CO)cc(O)c2C(=O)c2c(O[C@@H]3OC(CO)[C@@H](O)[C@@H](O)[C@@H]3O)cccc21 (stereo not given in full)
i	Cn1c(C(=O)Nc2ccc3c(c2)OCCO3)cc2c(=O)n(C)c3ccccc3c21
i	Cc1cc(C)n(C(=O)CNC(=O)c2cccc(Br)c2)n1
i	COc1ccccc1CC(NC(C)=O)C(=O)N1CCN(C(=O)Nc2ccccc2Cl)CC1 (stereo not given)
i	O=c1c2c(n3cnnc3n1-c1ccccc1)-c1ccccc1CC21CCCC1
i	O=C(COC(=O)/C=C/c1ccc([N+](=O)[O-])cc1)NCc1ccco1
i	CCOc1cnc(-c2ccc(OC)cc2)o1
i	COc1ccccc1OC(C)C(=O)N1CCC(Cc2ccccc2)CC1 (stereo not given)
i	CN(C)c1nc2n(c(=O)n1)CCS2
i	COCCC(=O)NNS(=O)(=O)c1ccc(Cl)cc1
i	O=C(O)COc1c(Cl)cc(/C=C2\NC(=O)NC2=O)cc1Br
i	Cc1csc(NC(=O)c2cc(=O)[nH]c3ccc(S(=O)(=O)N4CCOCC4)cc23)n1
i	CC(C)CCC(C)N=Cc1c(O)n(Cc2ccccc2)c(=O)c2ccccc12 (stereo not given)
i	O=Cc1cnc(N2CCCCC2)s1
i	CCN(CC(=O)Nc1c(F)cccc1F)C(=O)C1CCCN(C(=O)c2ccc(Cl)cc2)C1 (stereo not given)

(cont.)
CHT block	mol
i	O=C1CC(c2ccc(F)cc2)Cc2nc(N3CCN(c4ccccc4)CC3)ncc21 (stereo not given)
i	CCOc1ccc(NC(=O)CCC(=O)NNC(=O)Nc2cccc(Cl)c2)cc1
i	Cc1cc(C(=O)NCCC(C)C)c2ccccc2n1
i	CCOc1nc(-c2ccccc2Cl)nc2ccccc12
i	CC(NC(=O)C(=O)Nc1nccs1)c1ccccc1 (stereo not given)
i	COCC1CCN(Cc2cn(C)nc2-c2cccc(Cl)c2)C1 (stereo not given)
i	CNC(=O)CSc1nnc(CCc2ccccc2)n1-c1ccccc1
i	CN(C)/C=C(/C(=O)c1ccc(Cl)cc1)S(C)(=O)=O
i	COC(=O)c1cccc(S(=O)(=O)N(Cc2ccco2)Cc2cc3cc(OC)c(OC)cc3[nH]c2=O)c1
i	O=c1cc(N2CCCC2)[nH]c(=O)n1-c1ccc(Cl)cc1
i	COCCN1C2=C(C(=O)CC(C)(C)C2)C(c2ccc(OC)c(OC)c2)C2=C1CC(C)(C)CC2=O
i	Cc1sc(NC(=O)CN(C)C2CCCCC2)nc1-c1ccc2c(c1)CCN2S(=O)(=O)c1ccccc1
i	CC(C)CN(C(=O)CC1CCCC1)c1c(N)n(Cc2ccccc2)c(=O)[nH]c1=O
i	O=C(CCN=C1NS(=O)(=O)c2ccccc21)N1CCc2ccccc2C1
i	Cc1cc(Br)cc(Br)c1OCC(=O)NNC(=O)CCC(=O)NCc1ccccc1
i	COc1cccc(NC(=O)c2nnn(Cc3ccc(Br)cc3F)c2N)c1
i	COc1ccc(/C=C2\CCCC3C2=NN(C(=O)c2scnc2C)C3c2ccc(OC)c(OC)c2)cc1OC (stereo not given)
i	O=C(O)CCc1ccc(-c2cccs2)n1NC(=O)c1ccccc1Br
i	CCn1c(SCC(=O)Nc2ccc(C)cc2)nc(O)cc1=O
i	O=C(NNc1nc2c(F)cccc2s1)c1ccc(F)cc1
i	Cc1ccc(NC(=O)[C@@H]2CCC(=O)N2C2OC(=O)c3ccccc32)cc1Cl (stereo not given in full)
i	Cc1ccc(C)c(NC(=O)CSc2nnc(CCNC(=O)OC(C)(C)C)o2)c1
i	O=C(NC1CCCCCC1)c1cc(S(=O)(=O)N2CCCCC2)ccc1N1CCOCC1
i	O=C(c1ccc2nc[nH]c2c1)N1CCN(c2cccc(C(F)(F)F)c2)CC1
i	CCOC(=O)c1c(-c2ccccc2)oc2ccc(OCC(=O)NN)cc12
i	Cc1ccc(S(=O)(=O)NNC(=O)C2CCN(Cc3ccccc3)CC2)cc1
i	CCOC(=O)CSc1nc(C(C)C)nc2sc(C)c(C)c12
i	COC(=O)Oc1cncc(C(=O)O)c1
i	Cn1c(/C(C#N)=C/c2cccc(O)c2)nc2ccccc21
i	Cc1c(NC(=O)CN2C(=O)NC3(CCCC3)C2=O)c(=O)n(-c2ccccc2)n1C
i	CCN1CCc2nc(NC(=O)c3ccc4c(c3)OCCO4)sc2C1
i	O=C(O)c1nccnc1C(=O)Nc1ccccc1N1CCOCC1
i	COc1ccc(NS(=O)(=O)c2cccc(C(=O)NNC(=O)c3cc(S(N)(=O)=O)ccc3OC)c2)cc1
i	COc1cccc(NC(=O)Cc2cccs2)c1
i	CNC(=S)N1CCC(NC(=O)C(Cc2ccc(OC)cc2)NC(C)=O)CC1 (stereo not given)
i	CCOC(=O)N1CCN(C(=O)Nc2ccc3oc(C)nc3c2)CC1
i	O=C(CSc1ccc(Cl)cc1)N/N=C/c1ccc([N+](=O)[O-])o1
i	CCCCn1c(-c2ccco2)nc2oc3ccccc3c(=O)c2c1=O
i	COc1ccc(N(C(=O)c2ccccc2OC)C2C=CS(=O)(=O)C2)c(OC)c1 (stereo not given)
i	CN(NC1OC(=O)c2ccccc21)c1ccccc1[N+](=O)[O-] (stereo not given)
i	Cc1ccc(C(=O)O)cc1NC(=S)NC(=O)C(c1ccccc1)c1ccccc1
i	Clc1ccccc1-c1nnc2sc(-c3cccs3)nn12
i	COc1ccc(NC(=O)CCOc2ccc(C)cc2)c(OC)c1
i	COc1cccc(C(=O)NCC(=O)N/N=C/c2cccs2)c1
i	CC(=O)c1c(C)[nH]c(C(=O)NCCCN2CCCC2)c1C
i	N#Cc1ccc(N2C(=O)[C@@H]3C(C(=O)c4ccc5ccccc5n4)=NN[C@@H]3C2=O)cc1
i	CCOc1ccc(C(=O)Nc2cccc(-c3ccc4nncn4n3)c2)cc1
i	COc1ccc(CC/C(C)=N\NC(N)=O)cc1
i	CC(C)(C)S(=O)(=O)/C(C#N)=C/Nc1ccccn1
i	COc1ccccc1N(C(=O)CNC(=O)c1ccco1)C(C(=O)NC1CCCCC1)c1ccncc1 (stereo not given)

Further compounds:
CHT block	mol
i	COC(=O)c1cc(OC)c(OC)cc1NC(=O)Nc1ccccc1OC
i	CN(CC(=O)Nc1ccc(Cl)c(Cl)c1)C(=O)C12CC3CC(CC(C3)C1)C2
i	Nc1nnc(SCc2c(F)cccc2Cl)s1
i	O=C(N/N=C/c1ccc(N2CCOCC2)o1)c1cccc(F)c1
i	O=c1c2cc(Br)ccc2[nH]c(=S)n1Cc1cccnc1
i	O=C(CCNc1n[nH]c(=O)[nH]c1=O)N/N=C/c1ccccc1Br
i	C=CCO/N=C/C1C(=O)CC(C)(C)CC1=O
i	COCCNC(=O)CSc1ccccc1C(=O)NC1CCSc2ccccc21 (stereo not given)
i	CCCCC1CCC(c2ccc(C(N)=O)cc2)CC1 (stereo not given)
i	COc1ccc(-n2ccc(=O)c(C(=O)O)n2)c(OC)c1
i	O=C(OC1CCCCC1=O)c1ccc(S(=O)(=O)Nc2ccccc2)cc1 (stereo not given)
i	O=C(NCCc1ccccn1)C1CCCN1S(=O)(=O)c1ccc(Cl)cc1 (stereo not given)
i	CC(C)C(OC(=O)C1CCCO1)C(=O)NC1CCCC1 (stereo not given)
i	O=C(CNC(=O)c1cccc(Br)c1)N/N=C/c1cccs1
i	Cc1ccc(C(c2sc3nc(C)nn3c2O)N2CCN(c3ccccc3F)CC2)cc1 (stereo not given)
i	CC1Cc2nc(SCC(=O)N3CCCC3)n(C)c(=O)c2S1 (stereo not given)
i	Cc1nnc(NC(=O)CSc2ncn(-c3ccccc3)n2)s1
i	COc1ccc(Cc2nnc3n2N=C(c2cc4ccccc4o2)CS3)cc1OC
i	CC(=O)Nc1ccc(/C=C/c2nc3ccccc3o2)cc1
i	CC(=O)N=c1n(C)c2ccccc2n1CCOc1ccccc1
i	Cc1ccc2cc(C#N)c(NCCNC(=O)C3CCC3)nc2c1C
i	Cc1cccc(C)c1NC(=O)CSc1nnc([C@H](C)NC(=O)OC(C)(C)C)o1
i	O=C(CCN1C(=O)S/C(=C\c2ccccc2)C1=O)Nc1ccc(S(=O)(=O)Nc2nccs2)cc1
i	O=C(CN1C(=O)c2cccc3cccc1c23)N1CCN(c2ccccc2)CC1
i	COc1ccc(C)cc1S(=O)(=O)Nc1cc2c3c(c1)CCC(=O)N3CCC2
i	COCCCNS(=O)(=O)c1ccc2[nH]c3c(c2c1)CCCCC3
i	Cc1ccnc(NC(=O)CCC(=O)N(CC(=O)NCc2ccc(F)cc2)c2ccc(F)cc2)c1
i	CCOc1ccc(NC(=O)NCC2CCN(c3ccc(OC)cc3)C2)cc1 (stereo not given)
i	Cc1ccc(-c2nc(NC(=O)CSc3nnnn3-c3ccccc3)ns2)cc1
i	CCN(CC)C(=O)CSc1n[nH]c(=O)n1CCc1ccccc1
i	COc1ccc2c(c1OC)C(=O)N(c1cccc(C(F)(F)F)c1)C2
i	COc1ccccc1C1CC(c2ccccc2)=NN1C(=S)Nc1ccccc1 (stereo not given)
i	CN(CC1CCCO1)S(=O)(=O)c1ccc(C(=O)Nc2nc3cc4c(cc3s2)OCO4)cc1 (stereo not given)
i	COc1ccccc1CNC(=O)c1cc(-c2ccncc2)nc2c(Cl)cccc12
i	CC(C)[C@H](NC(=O)c1ccccc1)C(=O)OCC(=O)N1CC(=O)Nc2ccccc21

Arranged by number of heavy atoms (high to low): some entries from above
CHT block	mol
i	COc1ccccc1N(C(=O)CNC(=O)c1ccco1)C(C(=O)NC1CCCCC1)c1ccncc1 (stereo not given)
i	O=C(CCN1C(=O)S/C(=C\c2ccccc2)C1=O)Nc1ccc(S(=O)(=O)Nc2nccs2)cc1
i	CN(CC1CCCO1)S(=O)(=O)c1ccc(C(=O)Nc2nc3cc4c(cc3s2)OCO4)cc1 (stereo not given)
i	O=C1CC(c2ccc(F)cc2)Cc2nc(N3CCN(c4ccccc4)CC3)ncc21 (stereo not given)
i	O=C(CCNS(=O)(=O)c1cccc2nsnc12)N1CCN(c2ccccn2)CC1
i	c1ccc(-n2c(SCc3nc(-c4cccs4)no3)nnc2-c2ccco2)cc1
i	O=C(c1ccc2nc[nH]c2c1)N1CCN(c2cccc(C(F)(F)F)c2)CC1
i	CN(CC(=O)Nc1ccc(Cl)c(Cl)c1)C(=O)C12CC3CC(CC(C3)C1)C2
i	CCN1CCc2nc(NC(=O)c3ccc4c(c3)OCCO4)sc2C1
i	O=C(CCNc1n[nH]c(=O)[nH]c1=O)N/N=C/c1ccccc1Br
i	COc1cccc(C(=O)NCC(=O)N/N=C/c2cccs2)c1
i	COc1ccccc1NCC(=O)N/N=C/c1cccnc1
i	Clc1ccccc1-c1nnc2sc(-c3cccs3)nn12
i	CC(NC(=O)C(=O)Nc1nccs1)c1ccccc1 (stereo not given)
i	Cc1nc2ccc(NC3=NCCCCC3)cc2s1
i	COc1ccc(CC/C(C)=N\NC(N)=O)cc1
i	C=CCO/N=C/C1C(=O)CC(C)(C)CC1=O
i	CN(C)c1nc2n(c(=O)n1)CCS2
